Assay outcomes deposited in PubChem BioAssay by Broad Institute.
UUG fidelity: modulators of yeast start codon fidelity, primary screen, whole organism, S. cerevisiae, single point, plate reader; activity score, % at 18.7 µM; S. cerevisiae UUG-firefly luciferase reporter, luminescence/redox ratio; 350,000 compounds, 0.13% hits; AID 602363, 2012;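 active = replicate mean at a twofold rise or more, about +100% in these data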;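 note: firefly luciferase made from a UUG start codon reports start codon fidelity; reporter light over untreated wells divided by growth signal over untreated wells; some hits fall short of that in this replicate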
HIV Env fusion: inhibitors of HIV-1 Env-driven cell-cell fusion, primary screen, HeLa-JRFL effector, CEM21 target cells, luciferase. 360,000 compounds, 1.1% hits. inhibition, % at 12.3 µM;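 active = mean replicate inhibition score of at least 50 and every replicate individually at or above 50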;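 note: 0% = plate neutral controls and 100% = maraviroc near 300 nM; one replicate is shown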
* marks the source's active call; other numbers are inactive results; [ ] = dose if it differs, or a comment. An excerpt. The share of hits here may be higher or lower than overall.

Every second line gives: UUG fidelity | HIV Env fusion
- C[C@@H]1CN([C@H](C)CO)C(=O)Cc2cc(NC(=O)CCC(F)(F)F)ccc2O[C@@H]1CN(C)Cc1ccc(-c2ccccc2)cc1
 : 6 | 5[16.7 µM]
- COc1ccc(NC(=O)N(C)C[C@H]2Oc3ccc(NS(=O)(=O)c4ccc(OC)cc4)cc3C(=O)N([C@H](C)CO)C[C@H]2C)cc1
 : -1 | -11[16.7 µM]
- CO[C@H]1CN(C)C(=O)c2ccc(NC(=O)Nc3ccccc3)cc2OC[C@@H](C)N(C(=O)CC2CC2)C[C@@H]1C
 : 9 | -5[16.7 µM]
- C[C@@H]1CN([C@@H](C)CO)C(=O)CCCn2cc(nn2)CO[C@H]1CN(C)C(=O)Nc1ccccc1
 : -7 | -13
- Cc1noc(C)c1S(=O)(=O)Nc1ccc2c(c1)C(=O)N([C@H](C)CO)C[C@H](C)[C@H](CN(C)Cc1ccncc1)OCCCC[C@H](C)O2
 : -11 | -11[16.7 µM]
- C[C@@H]1CN([C@H](C)CO)C(=O)c2cc(N(C)C)ccc2O[C@@H]1CN(C)Cc1ccncc1
 : -19 | -17[16.7 µM]
- CCC(=O)N[C@H]1CC[C@H](CC(=O)NCc2ccccc2OC)O[C@H]1CO
 : -11 | -23[16.7 µM]
- CCCNC(=O)N[C@@H]1CC[C@@H](CC(=O)N2CCN(C)CC2)O[C@@H]1CO
 : -13 | 7[16.7 µM]
- COc1ccc(S(=O)(=O)N(C)C[C@H]2Oc3c(NS(=O)(=O)c4ccc(Cl)cc4)cccc3C(=O)N([C@@H](C)CO)C[C@@H]2C)cc1
 : -9 | -165[16.7 µM]
- C[C@H]1CCCCO[C@@H](CN(C)S(=O)(=O)c2ccccc2)[C@@H](C)CN([C@@H](C)CO)C(=O)c2cc(NS(C)(=O)=O)ccc2O1
 : -3 | 5[16.7 µM]
- O=C(NCC[C@@H]1CC[C@@H](NC(=O)C2CCCC2)[C@H](CO)O1)c1cnccn1
 : 3 | 3[16.7 µM]
- O=C(C[C@H]1C[C@H]2c3cc(NC(=O)C4CCC4)ccc3O[C@H]2[C@@H](CO)O1)NCc1ccc(Cl)cc1
 : -15 | -19[16.7 µM]
- C[C@@H]1CN([C@@H](C)CO)C(=O)c2cc(NC(=O)c3ccncc3)ccc2O[C@@H]1CN(C)S(C)(=O)=O
 : -7 | -7[16.7 µM]
- CCCNC(=O)C[C@H]1CC[C@@H]2[C@@H](COc3ccc(NC(=O)CC)cc3C(=O)N2C)O1
 : -13 | 5[16.7 µM]
- O=C(C[C@@H]1CC[C@H]2[C@@H](COC[C@@H](O)CN2CCC(F)(F)F)O1)NCc1ccc2c(c1)OCO2
 : -15 | 9[16.7 µM]
- COc1ccc(NC(=O)N(C)C[C@H]2OCCCC[C@H](C)Oc3ccc(NC(=O)Nc4cccc5ccccc45)cc3C(=O)N([C@H](C)CO)C[C@@H]2C)cc1
 : -2 | -2[16.7 µM]
- C[C@@H]1CN([C@H](C)CO)C(=O)c2cc(C#Cc3cccc(F)c3)cnc2O[C@H]1CN(C)C(=O)C1CCOCC1
 : -13 | 12[16.7 µM]
- COc1ccc([Si](C)(C)[C@@H]2[C@@H](CCO)O[C@]3(C(=O)N(Cc4ccccc4)c4ccc(N5CCOC5=O)cc43)[C@H]2C)cc1
 : 2 | 11[16.7 µM]
- C[C@H](CO)N1C[C@H](C)[C@@H](CN(C)C(=O)CN(C)C)Oc2cc(C#CC(C)(C)O)ccc2S1(=O)=O
 : -6 | 25[16.7 µM]
- C[C@@H]1CN([C@@H](C)CO)C(=O)c2cccc(NC(=O)C3CCOCC3)c2O[C@H]1CN(C)Cc1ccccc1
 : 0 | 22[16.7 µM]
- C[C@@H]1CN([C@@H](C)CO)C(=O)c2cc(NS(=O)(=O)c3cn(C)cn3)ccc2O[C@H]1CN(C)Cc1ccc(C(F)(F)F)cc1
 : -17 | -7[16.7 µM]
- CNC[C@@H]1Oc2ccc(NC(=O)Nc3c(C)noc3C)cc2CC(=O)N([C@H](C)CO)C[C@@H]1C
 : -9 | -5[16.7 µM]
- C[C@@H]1CCCCO[C@H](CN(C)Cc2ccc3c(c2)OCO3)[C@@H](C)CN([C@H](C)CO)C(=O)c2cc(NC(=O)C3CCCCC3)ccc2O1
 : 12 | 17[16.7 µM]
- CN1CCN(C(=O)C[C@@H]2C[C@H]3c4cc(NC(=O)C5CCOCC5)ccc4O[C@H]3[C@@H](CO)O2)CC1
 : 1 | 18[16.7 µM]
- O=C(Nc1cc(F)ccc1F)N[C@@H]1CC[C@@H](CCNC(=O)c2cnccn2)O[C@@H]1CO
 : -5 | 5[16.7 µM]
- COc1ccc(NC(=O)N(C)C[C@H]2OCCCC[C@H](C)Oc3ccc(NS(=O)(=O)c4c(C)noc4C)cc3C(=O)N([C@@H](C)CO)C[C@H]2C)cc1
 : 7 | 11[16.7 µM]
- C[C@@H]1CCCCO[C@@H](CN(C)C(=O)Nc2ccc(C(F)(F)F)cc2)[C@H](C)CN([C@H](C)CO)C(=O)c2cc(NC(=O)Nc3ccccc3)ccc2O1
 : -10 | 43[16.7 µM]
- CNC(=O)C[C@@H]1CC[C@@H]2[C@@H](COc3ccc(NC(=O)C4CC4)cc3C(=O)N2C)O1
 : -5 | 11[16.7 µM]
- C[C@H](CO)N1C[C@H](C)[C@H](CN(C)S(=O)(=O)c2cn(C)cn2)Oc2ncc(C#Cc3ccccc3)cc2C1=O
 : 7 | 12[16.7 µM]
- Cc1noc(C)c1NC(=O)N(C)C[C@@H]1Oc2ncc(/C=C/c3ccccc3)cc2C(=O)N([C@H](C)CO)C[C@H]1C
 : 6 | -12[16.7 µM]
- CC(C)c1cn(CC[C@@H]2CC[C@H](NC(=O)Nc3cc(Cl)cc(Cl)c3)[C@H](CO)O2)nn1
 : -17 | -1[16.7 µM]
- COCC(=O)Nc1ccc2c(c1)C(=O)N(C)[C@@H]1CC[C@@H](CC(=O)NCCCN(C)C)O[C@H]1CO2
 : -2 | -8[16.7 µM]
- C[C@H](CO)N1C[C@H](C)[C@@H](CN(C)C(=O)C2CCOCC2)Oc2ncc(C3=CCCCC3)cc2C1=O
 : 1 | -10[16.7 µM]
- C[C@@H](O)C#Cc1cnc2c(c1)C(=O)N([C@@H](C)CO)C[C@H](C)[C@H](CN(C)Cc1cccc(F)c1)O2
 : -5 | -13[16.7 µM]
- CN(C)C(=O)C[C@@H]1CC[C@H](NC(=O)NC2CCCCC2)[C@@H](CO)O1
 : -6 | 2[16.7 µM]
- CN(C)C(=O)C[C@@H]1CC[C@@H]2[C@@H](COc3ccc(NS(=O)(=O)c4cccc(F)c4)cc3C(=O)N2C)O1
 : 3 | -16[16.7 µM]
- C[C@@H]1CN([C@H](C)CO)S(=O)(=O)c2ccc(C3=CCCC3)cc2O[C@H]1CN(C)C(=O)C1CCOCC1
 : 13 | -9[16.7 µM]
- O=C(C[C@@H]1CC[C@H](NC(=O)CN2CCOCC2)[C@@H](CO)O1)NC1CCC1
 : -10 | 12[16.7 µM]
- COc1ccc(NC(=O)Nc2ccc3c(c2)C(=O)N([C@H](C)CO)C[C@H](C)[C@H](CN(C)CC2CCCCC2)OCCCC[C@@H](C)O3)cc1
 : -3 | 4[16.7 µM]
- C[C@@H]1CN([C@@H](C)CO)C(=O)Cc2cc(NS(=O)(=O)c3ccccc3)ccc2O[C@H]1CN(C)Cc1ccc(Oc2ccccc2)cc1
 : 15 | 2[16.7 µM]
- CCCN(C)C[C@@H]1Oc2cc(-c3cccc(C#N)c3)ccc2S(=O)(=O)N([C@H](C)CO)C[C@@H]1C
 : -2 | -10[16.7 µM]
- O=C(NC1CCCCC1)N[C@H]1CC[C@@H](CCNS(=O)(=O)c2ccccc2)O[C@@H]1CO
 : 6 | 4[16.7 µM]
- Cc1noc(C)c1NC(=O)N(C)C[C@H]1Oc2cc(C#CCC(C)C)ccc2S(=O)(=O)N([C@@H](C)CO)C[C@H]1C
 : 0 | -74[16.7 µM]
- CCCC(O)C#Cc1cnc2c(c1)C(=O)N([C@H](C)CO)C[C@H](C)[C@H](CN(C)C(=O)NC(C)C)O2 (stereo partly specified)
 : 2 | -1[16.7 µM]
- C[C@@H]1CCCCO[C@@H](CN(C)CC2CCCCC2)[C@H](C)CN([C@H](C)CO)C(=O)c2cc(NC(=O)Nc3ccccc3)ccc2O1
 : 35 | 41[16.7 µM]

3 records picked at random from the list so far:
Every second line gives: UUG fidelity | HIV Env fusion
- O=C(NC1CCCCC1)N[C@H]1CC[C@@H](CCNS(=O)(=O)c2ccccc2)O[C@@H]1CO
 : 6 | 4[16.7 µM]
- COc1ccc(NC(=O)Nc2ccc3c(c2)C(=O)N([C@H](C)CO)C[C@H](C)[C@H](CN(C)CC2CCCCC2)OCCCC[C@@H](C)O3)cc1
 : -3 | 4[16.7 µM]
- CC(C)c1cn(CC[C@@H]2CC[C@H](NC(=O)Nc3cc(Cl)cc(Cl)c3)[C@H](CO)O2)nn1
 : -17 | -1[16.7 µM]

Carrying on:
Every second line gives: UUG fidelity | HIV Env fusion
- O=C(C[C@@H]1CC[C@H](NC(=O)C2CCOCC2)[C@@H](CO)O1)Nc1nccs1
 : -2 | 16[16.7 µM]
- C[C@H]1CN([C@@H](C)CO)C(=O)Cc2cc(NC(=O)CCN3CCOCC3)ccc2O[C@H]1CN(C)C(=O)Nc1ccc2c(c1)OCO2
 : 0 | -4[16.7 µM]
- C[C@@H]1CCCCO[C@@H](CN(C)Cc2ccc(Cl)c(Cl)c2)[C@@H](C)CN([C@@H](C)CO)C(=O)c2cc(NS(C)(=O)=O)ccc2O1
 : 21 | -30[16.7 µM]
- O=C(Nc1cccc(Cl)c1)N[C@H]1CC[C@H](CCNC(=O)C2CCOCC2)O[C@H]1CO
 : 0 | -72[16.7 µM]
- O=C(C[C@@H]1CC[C@H](NC(=O)Nc2ccc(F)cc2)[C@H](CO)O1)NCc1ccccn1
 : -14 | 2[16.7 µM]
- Cc1noc(C)c1NC(=O)Nc1ccc2c(c1)C(=O)N([C@@H](C)CO)C[C@H](C)[C@H](CN(C)C(=O)Nc1ccc(F)cc1)O2
 : 7 | 1[16.7 µM]
- CN1CCN(C(=O)C[C@@H]2CC[C@@H]3[C@H](COc4ccc(NC(=O)c5cccs5)cc4C(=O)N3C)O2)CC1
 : -5 | 0[16.7 µM]
- COCCNC(=O)C[C@H]1C=C[C@@H](NS(=O)(=O)c2ccc(C)cc2)[C@H](CO)O1
 : 8 | -7[16.7 µM]
- COc1cccc(-c2cnc3c(c2)C(=O)N([C@H](C)CO)C[C@H](C)[C@H](CN(C)S(C)(=O)=O)O3)c1
 : -2 | 2[16.7 µM]
- Cc1noc(C)c1NC(=O)N(C)C[C@@H]1Oc2ccc(NC(=O)Nc3ccccc3)cc2C(=O)N([C@@H](C)CO)C[C@H]1C
 : -1 | 0[16.7 µM]
- Cc1ccc(S(=O)(=O)N(C)C[C@@H]2Oc3ccc(NC(=O)Nc4ccc5c(c4)OCO5)cc3CC(=O)N([C@H](C)CO)C[C@@H]2C)cc1
 : 4 | -25[16.7 µM]
- COc1ccc(-c2ccc3c(c2)O[C@H](CN(C)C(=O)c2ccccc2F)[C@H](C)CN([C@@H](C)CO)S3(=O)=O)cc1
 : 27 | 5[16.7 µM]
- C[C@@H]1CCCCO[C@@H](CN(C)CC2CCCCC2)[C@H](C)CN([C@H](C)CO)C(=O)c2cc(NC(=O)c3ccccc3)ccc2O1
 : 16 | 67*[16.7 µM]
- Cc1ccc(S(=O)(=O)N(C)C[C@@H]2Oc3c(NC(=O)C4CCOCC4)cccc3C(=O)N([C@@H](C)CO)C[C@H]2C)cc1
 : 1 | -23[16.7 µM]
- CCCNC(=O)N(C)C[C@H]1Oc2cc(C3=CCCC3)ccc2S(=O)(=O)N([C@H](C)CO)C[C@H]1C
 : 2 | 2[16.7 µM]

Taken from above:
HIV Env fusion result of `Cc1ccc(S(=O)(=O)N(C)C[C@@H]2Oc3c(NC(=O)C4CCOCC4)cccc3C(=O)N([C@@H](C)CO)C[C@H]2C)cc1` stands at -23[16.7 µM]
UUG fidelity result of `COCCNC(=O)C[C@H]1C=C[C@@H](NS(=O)(=O)c2ccc(C)cc2)[C@H](CO)O1` stands at 8
UUG fidelity result of `COc1ccc(-c2ccc3c(c2)O[C@H](CN(C)C(=O)c2ccccc2F)[C@H](C)CN([C@@H](C)CO)S3(=O)=O)cc1` stands at 27
HIV Env fusion result of `COc1cccc(-c2cnc3c(c2)C(=O)N([C@H](C)CO)C[C@H](C)[C@H](CN(C)S(C)(=O)=O)O3)c1` stands at 2[16.7 µM]

The results go on.
Every second line gives: UUG fidelity | HIV Env fusion
- CC(C)CC#Cc1cnc2c(c1)C(=O)N([C@H](C)CO)C[C@H](C)[C@H](CN(C)C(=O)CCN1CCCCC1)O2
 : 1 | 2[16.7 µM]
- Cc1noc(C)c1NC(=O)Nc1ccc2c(c1)C(=O)N([C@@H](C)CO)C[C@H](C)[C@@H](CN(C)S(C)(=O)=O)OCCCC[C@@H](C)O2
 : 20 | 13[16.7 µM]
- C[C@@H]1CN([C@H](C)CO)C(=O)c2cccc(NC(=O)c3ccncc3)c2O[C@H]1CN(C)CC1CC1
 : -19 | 6[16.7 µM]
- C[C@H](CO)N1C[C@H](C)[C@@H](CN(C)C(=O)CCCN(C)C)OCCCC[C@H](C)Oc2ccc(NC(=O)c3ccccc3)cc2C1=O
 : 14 | -10[16.7 µM]
- C[C@@H]1CN([C@H](C)CO)S(=O)(=O)c2ccc(-c3ccccc3)cc2O[C@H]1CN(C)C(=O)c1ccccc1F
 : -7 | 20[16.7 µM]
- O=C(C[C@@H]1CC[C@@H](NC(=O)NC2CCCC2)[C@H](CO)O1)NCc1ccc(F)cc1
 : 16 | -14[16.7 µM]
- CNC[C@@H]1Oc2c(NS(=O)(=O)c3ccc(F)cc3)cccc2C(=O)N([C@@H](C)CO)C[C@@H]1C
 : -1 | 31[16.7 µM]
- COC(=O)C[C@@H]1CC[C@H]2[C@H](COc3ccc(NC(=O)Nc4ccc(Cl)cc4)cc3C(=O)N2C)O1
 : -7 | 42[16.7 µM]
